Screening results: PubChem BioAssay, Fisher Drug Discovery Resource Center
NPYLR7 ag = agonists of mosquito NPYLR7 receptor, primary screen, cell-based, Aedes aegypti, calcium fluorescence, mosquito biting behavior; Aedes aegypti neuropeptide Y-like receptor 7 (NPYLR7); HEK293T NPYLR7/Galpha15, GCaMP6s calcium fluorescence; activation, % at 10 µM; 270,000 tested, 0.15% active; in the data active = activation above about 40%;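 note: 0% = vehicle and 100% = reference agonist at the receptor; some compounds past the cut are filed as inactive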
NPYLR7 ag max-min = second read-out of NPYLR7 ag, no call of its own (marks repeat the call); activation, %; measured here: Max-Min RFU normalised activation; some inactives read as strong as hits;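 span of the calcium signal over five minutes; 0% = vehicle and 100% = native peptide agonist; compound fluorescence can raise it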
* = called active by the depositor; & = joins results of further samples. The list is partial; count on the stated rates, not on these rows.

smiles | NPYLR7 ag | NPYLR7 ag max-min
O=C(NCC(F)(F)F)c1ccc2c(=O)[nH]c(=S)[nH]c2c1 | -2 | -3
O=C(c1ccc(CSCc2ccc(Cl)cc2)cc1)N1C2CCC1CC(Oc1ccc(F)cc1F)C2 (configuration not stated) | 4 | -8
Cc1cccc2nc(C(=O)NC(C)CCn3cccn3)c(F)n12 (configuration not stated) | 0 | 16
CCCNC(=O)c1cc(C2CCCCN2S(=O)(=O)Cc2cccc(C(F)(F)F)c2)on1 (configuration not stated) | 3 | 0
O=[N+]([O-])c1cc(N=Cc2cccnc2)cc2ccc3ccccc3c12 | 3 | 3
COCCn1c(C)cc(O)c(C(c2ccccc2)N2CCN(CCO)CC2)c1=O (configuration not stated) | 7 | 0
CN=c1scc(-c2ccc(O)cc2O)n1/N=C\c1ccc(C)o1 | -6 | -7
CCN(C(=O)c1cc(Br)ccc1O)C1CC1 | 0 | -1

The listing continues.
smiles | NPYLR7 ag | NPYLR7 ag max-min
Cc1cc(NS(=O)(=O)c2cnc[nH]2)n(C2CCS(=O)(=O)C2)n1 (configuration not stated) | -1 | -1
O=c1c(-c2cccc3ccccc23)[n+]([O-])c2ccccc2n1OCc1cccc(F)c1 | 23 | 2
CCSc1nnc(NC(=O)/C=C/c2ccccc2OC)s1 | 1 | -4
Cc1cc(C)c[n+](C2=C(c3c(C)[nH]n(-c4ccc(F)cc4)c3=O)C(=O)N(CC(C)C)C2=O)c1 | -5 | -4
CCCc1c(C(=O)N2CCc3c([nH]c4ccc(OC)cc34)C2c2ccc(COC(C)=O)o2)cnn1-c1ccccc1 (configuration not stated) | 6 | -2
O=C1NC(Cc2ccc(F)cc2)(C2CCNCC2)C(=O)N1CCc1cccs1 (configuration not stated) | 9 | 8
CCCc1nc(C)cc(N2CCC(CC3CCCCO3)(C(=O)O)CC2)n1 (configuration not stated) | 6 | -3
O=C(O)c1ccccc1N=Nc1c(O)[nH]c2ccc(F)cc12 | -2 | -5

(continued)
smiles | NPYLR7 ag | NPYLR7 ag max-min
CC1=C(C(=O)OC(C)C)C(c2ccc(N(C)C)cc2)C2=C(CCCC2=O)N1 (configuration not stated) | 0 | -2
Cc1noc(-c2ccc(C(C)(C)C)cc2)c1C(=O)NCc1ccccc1Cl | 14 | 8
O=C(C=Cc1ccco1)NNC(=O)c1cc2c(s1)CCCC2 | -1 | -3
COc1ccc(-n2ncc(C(C)NCc3ccc(NC(C)=O)cc3)c2C)cc1 (configuration not stated) | 12 | 2
COc1ccc2c(C)c(C(=O)N3CCN(S(=O)(=O)C4CC4)CC3)oc2c1 | 0 | -1
CCOc1ncccc1CN1CCC(C(=O)Nc2cccc(Oc3ccccc3)c2)CC1 | -5 | -7
CCCNC(=O)c1c(O)nc2c(C)cccn2c1=O | -3 | 24
CC(Sc1ccccc1)C(=O)N1CCN(S(=O)(=O)c2cc(F)ccc2F)CC1 (configuration not stated) | 1 | 8

The list continues.
smiles | NPYLR7 ag | NPYLR7 ag max-min
O=[N+]([O-])c1ccc2[nH]c(=S)sc2c1 | 12 | 8
CC(C)N1CCC(C)(C(=O)Nc2cc(C3CC3)nn2C)C1 (configuration not stated) | 1 | 2
O=c1sccn1Cc1coc(-c2ccc(Br)cc2)n1 | -9 | -9
CCOC(=O)c1nn(-c2ccc(F)cc2)c(=O)cc1N1CCCC(C)C1 (configuration not stated) | 7 | 1
CCN(C(=O)C(C)Sc1nc2ccccc2c(=O)n1CC1CCCO1)c1ccccc1 (configuration not stated) | 1 | 3
Cc1cc(C)c(CN2CCC(CCC(=O)N3CCOCC3)CC2)cc1C | 3 | 2
O=[N+]([O-])c1ccc(Nc2ccc(Cl)c(Cl)c2)c2cccnc12 | 3 | 2
COc1ccc(-c2nnc(SCC(=O)N/N=C\c3c(Cl)cccc3Cl)n2-c2ccccc2)cc1OC | -6 | -11

Continuation.
smiles | NPYLR7 ag | NPYLR7 ag max-min
CCCN(Cc1ccccc1O)C(=O)c1ccc(=O)n(CCOC)c1 | 5 | 4
Cc1ccc(NC(=O)Cn2nc(-c3ccco3)c3sc(C)nc3c2=O)cc1 | 1 | -1
O=C(c1ccc2ncccc2c1)N1CCCC2(CCc3ccccc32)C1 (configuration not stated) | 4 | 4
Cc1nnc(SCC(=O)Nc2ccc(Oc3ccccc3)cc2)[nH]c1=O | -6 | -6
CCOC(=O)C(OC(=O)Cc1cccc(C)c1)c1cccnc1 (configuration not stated) | 0 | -1
Cc1ccccc1OCCn1c(CCCO)nc2ccccc21 | -3 | 2
COc1ccc(C(=O)N(Cc2c(-c3ccc(F)cc3)noc2N2CCN(C)CC2)C(C)C)cc1 | 1 | 4
COCCN(Cc1ccc(OC)c(OS(=O)(=O)c2ccc(OC)cc2)c1)C(=O)c1ccco1 | 23 | 25

Remaining list, next part:
smiles | NPYLR7 ag | NPYLR7 ag max-min
Nc1c(C(=O)Nc2cc(Cl)cc(Cl)c2)c2ccccn2c1C(=O)c1ccccc1 | -3 | -12
Cc1nc2sc3c(c2c(=O)n1NC(=S)NC(=O)C12CC4CC(CC(C4)C1)C2)CCCC3 | 3 | 65
O=C(c1cnc2ccccn2c1=O)N1CCCC(N2CCN(c3ccc(F)cc3)CC2)C1 (configuration not stated) | -1 | -5
COc1ccccc1CN1CN(S(=O)(=O)c2ccccc2)c2nc3ccccc3nc21 | -2 | -10
c1cncc(-c2nnc(SCc3cccc4ccccc34)o2)c1 | 0 | 0
C=C(C)Cn1c(Sc2ccccc2)nc2c1c(=O)[nH]c(=O)n2C | 5 | 2
CCOc1ccc(Cc2nnc(SCC(=O)Nc3c(C)cccc3C)[nH]c2=O)cc1 | -10 | -8
Cn1nnnc1SCCNC[C@]1(O)CCCN2CCCC[C@@H]21 | 25 | 20

The listing continues.
smiles | NPYLR7 ag | NPYLR7 ag max-min
COc1cccc(C(=O)NCC2CCCN(Cc3cccnc3)C2)c1OC (configuration not stated) | -6 | -6
C=CCn1c(=O)c2c(nc3n(-c4ccc(OCC)cc4)c(C)cn23)n(C)c1=O | 0 | 15
CCO[C@H]1COC[C@@H]1NC(=O)c1cc2cc(C)ccc2o1 | -4 | -5
O=c1c2cnc3nc(-c4ccccc4)nn3c2ccn1Cc1ccco1 | 3 | 4
COCCCN(Cc1ccc(C)s1)CC(C)(C)O | 13 | 9
CC(C)OCCCNC(=O)Cc1cc(-c2ccc(F)cc2F)on1 | 5 | 5
CCCN(C(=O)Nc1ccc(C(=O)OCC)cc1)C(C)c1nc2cc(Cl)ccc2c(=O)n1-c1ccc(OC)cc1 (configuration not stated) | 16 | 17
CCOC(=O)c1c(NC(=O)c2ccc(C)c([N+](=O)[O-])c2)sc(C(=O)Nc2ccccc2F)c1C | 5 | 7

(list continues)
smiles | NPYLR7 ag | NPYLR7 ag max-min
Cn1ccnc1-c1c(-c2ccccc2)ncn1[C@@H]1C[C@@H]2CC[C@H]1C2 | -5 | -9
CCN1CCc2c(sc(NC(=O)c3cc(C)no3)c2-c2nc3ccccc3s2)C1 | 4 | 1
COc1cccc(C(=O)NC(C(=O)NCc2ccco2)C2CCN(C(=O)c3ccccc3OC)CC2)c1 (configuration not stated) | 4 | 3
CC(C)CC(=O)Nc1ccc(-c2csc(N3CCOCC3)n2)cc1 | 8 | 6
Cc1ccc(Cc2nc(CSc3nccs3)cs2)cc1 | 4 | 1
Cc1cccc(N2CC(O)(c3cccs3)[N+]3=C2CCCC3)c1 (configuration not stated) | -5 | -6
CC(C)c1ccccc1N1C(=O)CSC1c1ccc(NC(=O)/C=C/c2ccc([N+](=O)[O-])cc2)cc1 (configuration not stated) | -1 | 2
COc1ccc(OCC(O)CN(Cc2cccn2Cc2cccc(C(F)(F)F)c2)CC(C)C)cc1 (configuration not stated) | 15 | 17

The listing continues:
smiles | NPYLR7 ag | NPYLR7 ag max-min
Cc1nn2c(N3CCOCC3)c3c(nc2c1-c1ccccc1)CCCC3 | 5 | 5
CC(NC(C)C1CC2CCC1C2)C(=O)N(C)Cc1cccc(F)c1 (configuration not stated) | 1 | 2
O=C(c1cn[nH]n1)N1CCC(c2c(-c3ccccc3)[nH]c3ccccc23)CC1 | 0 | -6
Cc1ccnn1CCC(=O)N1CCCC(N2CCN(c3cccc(Cl)c3)CC2)C1 (configuration not stated) | -4 | -7
CCCCCn1c(N2CCN(Cc3ccc(Cl)cc3)CC2)nc2c1c(=O)[nH]c(=O)n2C | 10 | 3
O=S(=O)(NCCc1csc2nc(-c3ccccc3F)nn12)c1ccc(Cl)cc1 | 1 | 0
O=C(CC1Sc2ccc(Cl)cc2NC1=O)NC1CCOc2ccccc21 (configuration not stated) | -4 | -5
Cc1c(C(=O)NCc2ccc([N+](=O)[O-])cc2)sc(=O)n1Cc1ccc(-c2ccccc2)cc1 | 10 | 1

Continued:
smiles | NPYLR7 ag | NPYLR7 ag max-min
COc1ccc(/C=C2\C=C(c3ccccc3)N(c3ccccc3Cl)C2=O)cc1 | -1 | 6
Clc1ccc(Cn2cc(Br)cn2)cc1Cl | 3 | 1
CNC(=O)[C@@]1(OCc2cccc(C)c2)CC(OCc2c(F)cccc2F)[C@@H]2OC(C)(C)O[C@@H]2C1 (some centres not stated) | 16 | 18
Cc1nn(C)c(C)c1/C=C/c1nc2ccccc2c(=O)[nH]1 | -11 | -11
Cc1nc(NC(=O)c2csc(-c3cc4ccccc4[nH]3)n2)sc1C(=O)N(C)C | 9 | 6
Cc1ccc(C(=O)Nc2c(N)nc(SCC(=O)Nc3ccc(C)cc3C)[nH]c2=O)cc1 | -11 | -2
O=C1CSC(c2ccc(Cl)c(Cl)c2)N1CCO (configuration not stated) | 0 | -6
CCN(CC(=O)NC(C)(C)C)C(=O)NC(C)c1ccncc1 (configuration not stated) | -7 | -9

Further entries.
smiles | NPYLR7 ag | NPYLR7 ag max-min
C=CCCOC(=O)N1CC(=O)N(Cc2ccc(C)cc2)CC(OC)C1 (configuration not stated) | 2 | 13
CC(NC(=O)C1COc2ccccc21)C1(N2CCOCC2)CCCC1 (configuration not stated) | -5 | -5
Cc1ccc(CN(C)Cc2cn(-c3ccccc3)nc2-c2ccc3c(c2)OCO3)o1 | -2 | -5
CC(=O)N(CC(C)C)CC1CN(Cc2ccccc2[N+](=O)[O-])CC1c1cccc(F)c1 (configuration not stated) | 2 | 1
Cc1cscc1S(=O)(=O)c1ccccc1 | -1 | -1
CCCOc1ccccc1C(=O)N1CCCC(Nc2ccccc2)C1 (configuration not stated) | 0 | -4
Nc1cn2c(=O)c3ccccc3[nH]c2c1-[n+]1ccccc1 | 7&0 | 6&6
Cc1cccc(=O)n1CCCn1cc(-c2ccc3c(c2)OCCO3)nn1 | 4 | 2

Continued:
smiles | NPYLR7 ag | NPYLR7 ag max-min
N#Cc1cccc(NCc2nc(-c3cccs3)no2)c1 | 8 | 5
Cc1nc(S(=O)(=O)N2CCOC3(CCCC3)C2)cn1C | 7 | 5
CCCc1cc(=O)[nH]c2nnc(SCC)n12 | -15 | -13
Brc1cccc(C2(NCc3nc(C4CC4)no3)CCOCC2)c1 | 6 | 3
Cc1ccc(NC(=O)C2C3CCC(O3)C2C(=O)O)cc1C (configuration not stated) | 7 | 6
Cc1nc2c(c(=O)[nH]1)CCN(C(=O)c1cc3c(C(F)(F)F)nn(C)c3s1)C2 | 6 | 2
Cc1occc1SCc1ccc(C(=O)N2C3CCC2CC(Oc2ccc(F)cc2F)C3)cc1 (configuration not stated) | 29 | 42
Cc1ccc(C2CC2C(=O)NS(=O)(=O)c2ccc(F)cc2)s1 (configuration not stated) | -2 | -3

Looked up above.
NPYLR7 ag max-min result of N#Cc1cccc(NCc2nc(-c3cccs3)no2)c1 : 5
NPYLR7 ag max-min result of CCCc1cc(=O)[nH]c2nnc(SCC)n12 : -13
NPYLR7 ag max-min result of Cc1ccc(NC(=O)C2C3CCC(O3)C2C(=O)O)cc1C (configuration not stated) : 6
NPYLR7 ag max-min result of Cc1occc1SCc1ccc(C(=O)N2C3CCC2CC(Oc2ccc(F)cc2F)C3)cc1 (configuration not stated) : 42
NPYLR7 ag result of Cc1nc2c(c(=O)[nH]1)CCN(C(=O)c1cc3c(C(F)(F)F)nn(C)c3s1)C2 : 6

In the list so far, these have a COOH group.
smiles | NPYLR7 ag | NPYLR7 ag max-min
CCCc1nc(C)cc(N2CCC(CC3CCCCO3)(C(=O)O)CC2)n1 (configuration not stated) | 6 | -3
O=C(O)c1ccccc1N=Nc1c(O)[nH]c2ccc(F)cc12 | -2 | -5
Cc1ccc(NC(=O)C2C3CCC(O3)C2C(=O)O)cc1C (configuration not stated) | 7 | 6

Additional compounds
smiles | NPYLR7 ag | NPYLR7 ag max-min
COC(=O)C(C)(NC(=O)Cn1cnnn1)c1cc(F)ccc1F (configuration not stated) | 1 | 1
CCOC(=O)C1(CC2CC2)CCN(Cc2ccc(SC)cc2)CC1 | 14 | 4
CN(C)c1nc(N)c(C(=O)Nc2cccnc2)nc1Cl | -15 | -18
CCC(C)N(Cc1cccnc1)C(=O)CCN(C)S(C)(=O)=O (configuration not stated) | 29 | 17
COCCNC(=O)CN1Cc2ccc(N3CCOCC3)nc2C1=O | 0 | -3
Cc1cccc(N2CCN(C(=O)CC(C)C)C(C)C2=O)c1 (configuration not stated) | -2 | -3
CC(=O)NCCn1cnc(-c2ccccc2)c1CCn1cccn1 | 1 | -1
CCOC(=O)CNC(=O)CSc1c(CC)cnc2c1c(=O)n(C)c(=O)n2C | 6 | 11

Continuation:
smiles | NPYLR7 ag | NPYLR7 ag max-min
Cn1cc(/C=C/C(=O)NCc2n[nH]c(=O)[nH]2)c2ccccc21 | -1 | -1
COCCCN(Cc1ccc(Br)cc1)Cc1cccn1Cc1cccc(C)c1 | 1 | 7
Cc1ccc(Cl)cc1Nc1ncccc1C(=O)NCCC1=CCCCC1 | -2 | -7
CC(=O)C1=C(C(F)(F)F)N(c2ccccc2)C(=S)NC1c1ccccc1 (configuration not stated) | -1 | -1
